# VACV Venus inh – inhibitors of vaccinia virus (Venus reporter); 330,000 tested, 0.46% active; Vaccinia virus Venus reporter expression, fluorescence; Potency, µM (titrated, usually from 36.5 µM), without a hit: at the top dose activity change, negative = inhibition, usual class: inhibitors; active means well fitted inhibition curve with a large enough effect; inconclusive means small, poorly fitted or top-dose-only effect; inactive means no such curve, though single readings can be large or run the other way; tested in A549 cells; note: nearly all actives have a fitted effect of over 30% in size; inactives centre near -10
# Vaccinia mCherry – inhibitors of vaccinia virus infection (mCherry reporter signal). Vaccinia virus mCherry reporter infection, fluorescence; about a quarter of the inactives have no number. Potency, µM (titrated, usually from 36.5 µM), inactives show at the highest dose activity change, negative = inhibition, most hits filed as inhibitors. 310,000 tested, 0.63% active. AID 720579; active = well fitted inhibition curve with a large enough effect; inconclusive = small, poorly fitted or top-dose-only effect; inactive = no such curve, though single readings can be large or run the other way; tested in A549 cells; note: nearly all actives have a fitted effect of over 35% in size; inactives centre near -10
# The depositor's hits bear a star; i = inactive; u = inconclusive; x = no result given; [ ] = remark or other dose. % is set by controls: 0 for no effect and ±100 for the full control effect; potency is the fitted concentration of half-maximal effect.
# Start of the data: the first 15 entries as a preview:
SMILES,VACV Venus inh,Vaccinia mCherry
Cn1cc(CN2CCCC(C(=O)c3cccs3)C2)c(-c2cccc(Cl)c2)n1 (configuration not stated),-17%,-8%
CCc1ccc(CNc2nc3nc(C)c(Cc4ccccc4)c(=O)n3[nH]2)cc1,-10%,-15%
CCOC(=O)c1sc(N2C(=O)c3oc4ccc(F)cc4c(=O)c3C2c2cccc(OC)c2)nc1C (configuration not stated),-5%,-14%
CCOC(=O)N1CCC(NC(=O)c2cnn3cccnc23)CC1,u,x
O=C(CCc1ccccc1)Nc1ccc2ccccc2n1,4%,i
O=C(N/N=C/C=C/c1ccccc1[N+](=O)[O-])c1ccncc1,-10%,-5%
O=C(O)CCNC(=O)C12CC3CC(CC(C3)C1)C2,-9%,-2%
NC(=O)COC(=O)CCSc1ccc(Cl)cc1,-3%,i
COc1ccc(N(CC(=O)Nc2ccc3c(c2)OCO3)S(=O)(=O)c2c(C)nn(C)c2C)cc1,-1%,-8%
Cc1ccc2[nH]c3c(c2c1)CN(C(=O)CN1CCN(c2cccc(C)c2C)CC1)CC3,u,x
CC1(C)C(=O)OC(/C=C\c2ccccc2)C(C)(C)C1=O (configuration not stated),-4%,-15%
Cc1nc2ccccc2n1C1CCN(CC(=O)NCc2ccc(F)cc2)CC1,-16%,-21%
CCc1ccc(N2C=C(C(=O)OC)C(c3ccc(OC)cc3)C(C#N)=C2N)cc1 (configuration not stated),u,u
CC1CCCc2sc3nc(NCc4ccco4)n4ncnc4c3c21 (configuration not stated),-22%,x
CCN1C(=O)[C@@H]2[C@@H](c3ccc(-c4ccc(OC)cc4)cc3)N3CCC[C@@]3(C(=O)OC)[C@@H]2C1=O,-12%,-3%

# Main list (from the top)
SMILES,VACV Venus inh,Vaccinia mCherry
Cn1cc(CN2CCCC(C(=O)c3cccs3)C2)c(-c2cccc(Cl)c2)n1 (configuration not stated),-17%,-8%
CCc1ccc(CNc2nc3nc(C)c(Cc4ccccc4)c(=O)n3[nH]2)cc1,-10%,-15%
CCOC(=O)c1sc(N2C(=O)c3oc4ccc(F)cc4c(=O)c3C2c2cccc(OC)c2)nc1C (configuration not stated),-5%,-14%
CCOC(=O)N1CCC(NC(=O)c2cnn3cccnc23)CC1,u,x
O=C(CCc1ccccc1)Nc1ccc2ccccc2n1,4%,i
O=C(N/N=C/C=C/c1ccccc1[N+](=O)[O-])c1ccncc1,-10%,-5%
O=C(O)CCNC(=O)C12CC3CC(CC(C3)C1)C2,-9%,-2%
NC(=O)COC(=O)CCSc1ccc(Cl)cc1,-3%,i
COc1ccc(N(CC(=O)Nc2ccc3c(c2)OCO3)S(=O)(=O)c2c(C)nn(C)c2C)cc1,-1%,-8%
Cc1ccc2[nH]c3c(c2c1)CN(C(=O)CN1CCN(c2cccc(C)c2C)CC1)CC3,u,x
CC1(C)C(=O)OC(/C=C\c2ccccc2)C(C)(C)C1=O (configuration not stated),-4%,-15%
Cc1nc2ccccc2n1C1CCN(CC(=O)NCc2ccc(F)cc2)CC1,-16%,-21%
CCc1ccc(N2C=C(C(=O)OC)C(c3ccc(OC)cc3)C(C#N)=C2N)cc1 (configuration not stated),u,u
CC1CCCc2sc3nc(NCc4ccco4)n4ncnc4c3c21 (configuration not stated),-22%,x
CCN1C(=O)[C@@H]2[C@@H](c3ccc(-c4ccc(OC)cc4)cc3)N3CCC[C@@]3(C(=O)OC)[C@@H]2C1=O,-12%,-3%

# Record cards (already shown):
# CCOC(=O)c1sc(N2C(=O)c3oc4ccc(F)cc4c(=O)c3C2c2cccc(OC)c2)nc1C (configuration not stated) is entered as VACV Venus inh = -5%; Vaccinia mCherry = -14%
# CCc1ccc(CNc2nc3nc(C)c(Cc4ccccc4)c(=O)n3[nH]2)cc1 is entered as VACV Venus inh = -10%; Vaccinia mCherry = -15%

# Further entries follow.
SMILES,VACV Venus inh,Vaccinia mCherry
O=C/C(=C\Nc1ccc(Cl)cn1)c1nc2ccccc2o1,-2%,x
COCCCNC(=O)COc1ccc(Br)cc1Cl,-10%,-16%
COc1ccc(CCNC(=O)c2ccc3c(c2)OCCO3)cc1,-11%,i
O=C(N1CCCCCC1)N1CCN(S(=O)(=O)N2CCOCC2)CC1,-10%,x
Cc1nnc(N2CCN(C(=O)NCCC(C)C)CC2)c2nn(-c3ccc(Cl)cc3)c(C)c12,u,u
Cc1cccc(C)c1NC(=O)C1(N(Cc2ccco2)C(=O)CC2NC(=O)NC2=O)CCCCC1 (configuration not stated),-4%,-13%
CC(/C=N/NC(=O)c1cnccn1)=C\c1ccco1,-11%,-10%
CCN1CCN(CC(=O)N2N=C(c3cccs3)CC2c2ccc(OC)c(OC)c2)C(=O)C1=O (configuration not stated),-1%,i
O=C(Cc1ccccc1)NC1CCN(C(=O)c2ccc([N+](=O)[O-])cc2)CC1,-2%,i
CCOC(=O)N1C/C(=C\c2ccccc2)C(=O)/C(=C/c2ccccc2)C1,u,u
Cc1nc(-c2ccc(S(=O)(=O)NCc3ccccc3Cl)cc2)co1,u,u
COc1ccccc1N1CCN(C(=S)NC(=O)c2ccc([N+](=O)[O-])cc2)CC1,u,-28%
CN1CCCN(Cc2ccccc2Br)CC1,-6%,-15%
CCC(=O)N1C(=O)CCN(C(C)=O)c2ccccc21,-19%,x
COc1ccccc1N1CCN(c2ccc(S(=O)(=O)N3CCN(C)CC3)cn2)CC1,0%,i
CC(C)N(C(=O)COC(=O)c1cccnc1Cl)c1ccccc1,-18%,-15%
Cc1ccnc(NC(=O)CCC(=O)N(CC(=O)NC(C)(C)C)c2ccc3c(c2)OCO3)c1,-3%,-14%
CC1(C)CN=C(Nc2ccccc2C(F)(F)F)S1,-13%,-19%
Cc1ccc(SCC(=O)NNC(=O)CCS(=O)(=O)c2ccccc2)cc1,3%,i
CSc1ccccc1NC(=O)CN(C)CC(=O)Nc1c(F)cccc1F,-12%,i
CC(=O)Nc1ccc(N2CCOCC2)c(S(=O)(=O)Nc2ccccc2Cl)c1,-19%,-8%
COc1cc(COc2ccc3c(C)c(Cc4ccccc4)c(=O)oc3c2)cc(OC)c1OC,9%,-11%
NS(=O)(=O)c1cccn1-c1ncc(C(F)(F)F)cc1Cl,-3%,-15%
CC(O)[C@H]1CC[C@H]2[C@@H]3CC[C@H]4C[C@H](O)CC[C@]4(C)[C@H]3[C@H](O)C[C@]12C (some centres not stated),-24%,-14%
CC(C)Oc1ccc(CNC(=O)c2ccc(NC(=O)c3nsc4ccccc34)cc2)cc1,-8%,8%
COc1ccc(NC(=O)NN2CCOCC2)cc1OC,-6%,-1%
COc1cc(OC)cc(C(=O)Nc2ncn[nH]2)c1,-7%,i
CCCCCCCCCCCCCCCC[n+]1ccc(C(N)=O)cc1,-15%,i
C=CCSC1=Nc2cc(OC)c(OC)cc2C2=NC(=O)CN12,-26%,-14%
CC(C)C[C@H](NC(=O)c1[nH]cnc1C(=O)Nc1ccc(Cl)cc1)C(=O)OC(C)(C)C,u,u
CC(=O)Nc1ccc(C(=O)CS(=O)(=O)c2ccc(C)cc2)cc1,-24%,x
Cc1nc2ccccc2c(=O)n1-c1c(Cl)cccc1Cl,u,-12%
COc1ccc(CN2Cc3cc(-c4ccccc4)ccc3-n3nncc3C2)cc1,2%,4%
O=C(O)c1csc(N/N=C/c2ccc(Br)cc2)n1,-7%,-3%
COc1cc(C(=O)Nc2ccc(Cl)c([N+](=O)[O-])c2)cc(OC)c1OC,u,u
Cc1cccc(C(=O)NCCCNC(=O)c2ccccn2)c1,-2%,i
O=C(Cn1cc(COc2ccc(Cl)c(Cl)c2)nn1)NS(=O)(=O)c1ccccc1OC(F)(F)F,-14%,5%
COc1ccc(CNCCCC(=O)Nc2c(Cl)ccc(C)c2Cl)cc1OC,-1%,-7%
CSCCNC(=O)C1(C)CCN1C(=O)c1sccc1C (configuration not stated),-4%,i
Cn1c(C2CCCN2C(=O)OC(C)(C)C)n[nH]c1=S (configuration not stated),-5%,-16%
CCN(C(=O)COC(=O)c1cc(S(=O)(=O)N2CCOCC2)ccc1F)C1CCS(=O)(=O)C1 (configuration not stated),-12%,-14%
COc1ccc(C(=O)N2C=Cc3ccccc3C2C#N)cc1 (configuration not stated),-6%,-4%
Cc1ccccc1C(=O)Nc1cc(S(=O)(=O)N2CCCCC2)ccc1N1CCN(C)CC1,-18%,i
CCNC(=O)CN1C(=O)NC2(CCOc3ccccc32)C1=O (configuration not stated),-5%,i
O=C(Nc1nc2ccccc2[nH]1)Nc1ccccc1F,6%,-2%
CCOc1ccc(C(=O)NNC(=O)C2CC(=O)N(c3ccc(C)cc3)C2)cc1 (configuration not stated),-12%,i
Cc1ccc(NC(=O)C2CCCN(S(=O)(=O)c3cccc4cccnc34)C2)cc1Cl (configuration not stated),-24%,-30%
CC(C)CN(C(=O)COC(=O)CNC(=O)c1ccc(Cl)cc1)C1CCS(=O)(=O)C1 (configuration not stated),-2%,-6%
Cc1ccc(NC(=O)Cn2cnc3onc(-c4ccc(F)cc4)c3c2=O)c(Cl)c1,-7%,-9%
COC(=O)Cn1ncc(N2CC(C)OC(C)C2)c(Cl)c1=O (configuration not stated),-15%,i
CCOC(=O)C1CCN(c2cc(=O)n(-c3ccccc3Cl)c(=O)[nH]2)CC1,-11%,i
CC(Sc1nc2ccccc2[nH]1)C(=O)NC1CCCCC1C (configuration not stated),-16%,-26%
Cc1cccc(/C(N)=N/OC(=O)CCCN2C(=O)c3ccccc3C2=O)c1,-8%,x
NC(=O)COC(=O)c1cc(=O)[nH]c2ccccc12,1%,-7%
Cc1cc(NC(=O)CSc2nc(-c3cccnc3)ccc2C#N)no1,-20%,-34%
Cc1cccc(C(C(=O)NC2CCCCC2)N(C(=O)c2csnn2)C2CC2)c1 (configuration not stated),-11%,u
CCc1ccccc1N1C(=O)N(CC(=O)c2ccc(OC)cc2)c2ccccc2S1(=O)=O,-1%,14%
CC(=O)c1cc(C(=O)N2CCc3c([nH]c4ccccc34)C2CC(C)C)[nH]n1 (configuration not stated),4%,-23%
CC(C)NC(=O)CCN1C(=O)c2ccccc2Sc2ncccc21,-8%,-15%
CN1CCN(C2(CNC(=O)COc3ccc(C(C)(C)C)cc3)CCCCC2)CC1,-21%,i
# Remaining list, next part
SMILES,VACV Venus inh,Vaccinia mCherry
O=C(/C=C/c1ccco1)N(Cc1cccc(Cl)c1)C1CCS(=O)(=O)C1 (configuration not stated),-11%[7.34 µM],-14%[7.34 µM]
O=C(O)c1cnn2c(-c3ccc(F)cc3)ccnc12,-1%,i
CCOCCCNCc1ccc(Cl)cc1,-27%,-15%
CCCc1ccc(-c2ccc(-c3noc(-c4ccncc4)n3)cc2)nc1,-4%,-19%
CN(C)CCCN(C(=O)c1ccc(S(=O)(=O)N2CCOCC2)cc1)c1nc2ccc(F)cc2s1,-3%,-13%
O=C(NCc1ccc2c(c1)OCO2)c1cnc2n(c1=O)CCS2,-9%,-9%
Cc1nn(C(=O)c2ccco2)c(C)c1Sc1ccc([N+](=O)[O-])cc1,-10%,i
COc1ccc(CN2CCOc3ccc(CN4CCN(CCO)CC4)cc3C2)c2ccccc12,-12%,-20%
CC(C(=O)N1CC2(C)CC1CC(C)(C)C2)N1C(=O)c2ccccc2C1=O (configuration not stated),-14%,x
CCOC(=O)C1=CCN(S(=O)(=O)c2ccccc2C)C1c1cccc(Cl)c1 (configuration not stated),-7%,u
COc1ccc(-c2nn(-c3ccccc3)cc2C(=O)N2CCN(S(=O)(=O)c3cccc(F)c3)CC2)cc1,-15%,i
O=C(NNC(=O)c1ccco1)c1ccco1,-12%,-10%
COc1cc(NC(=O)c2ccc(Br)o2)c(C(=O)O)cc1OC,-19%,-25%
C=CCN1C(=O)c2ccc(C(=O)N(C)CC(=O)Nc3cccc(F)c3)cc2C1=O,-2%,-10%
COc1ccc(-c2ccc3c(c2)C2CC3CCN2CCC#N)cc1 (configuration not stated),-10%,-30%
COc1cccc(NC(=O)/C(C#N)=C/c2c(C)n(Cc3ccccc3)c3ccccc23)c1,7%,-20%
Cc1ccc(/C=C/C(=O)Nc2cc(=O)n(C)c(=O)n2C)o1,6%,-8%
Clc1ccc(-c2ccc(/C=N/Nc3cc(N4CCOCC4)nc(N4CCOCC4)n3)o2)cc1,-12%,x
O=C(Cc1cccs1)NCCc1cn2ccccc2n1,-11%,i
Cc1cc(C)nc(SCC(=O)NC2=NC(=O)C(C)S2)n1 (configuration not stated),0%,-11%
Cc1cc[n+](-c2nc([O-])sc2/C=N/Nc2ccc([N+](=O)[O-])cc2)cc1,-10%,-2%
COC(=O)C1CCCCN1Cc1ccc2c(c1)CN(C(=O)c1csc(-c3cccs3)n1)CCO2 (configuration not stated),0%,-12%
CCCCN(C)C(=O)c1ccc(Nc2nc(C(N)COCc3ccccc3)cs2)nc1 (configuration not stated),-6%,19%
Cc1nc2ccc(C(=O)Nc3cccc([N+](=O)[O-])c3)cc2s1,-6%,-17%
Cc1ccc(NC(=S)NNC(=O)c2ccco2)cc1,-17%,i
Cc1cc(O)cc2c(=O)c3ccccc3sc12,-9%,-17%
CN(C)c1ccc(C(O)P(=O)(OCc2ccccc2)c2ccc(N(C)C)cc2)cc1 (configuration not stated),9%,u
COc1cccc(CC(=S)N2CCOCC2)c1,-9%,i
O=C(Nc1ccc(Cl)cc1)c1nc[nH]c1C(=O)NCCCCNC(=O)c1[nH]cnc1C(=O)Nc1ccc(Cl)cc1,u,-32%
COc1ccc(-n2c(=S)[nH]c3cc(C(=O)N4CCN(c5ccccc5)CC4)ccc3c2=O)cc1,-9%,-22%
Cc1nn(Cc2ccccc2)c(C)c1CCC(=O)O,-12%,i
COc1ccc(C2/C=C\CN(S(=O)(=O)/C=C/c3ccccc3)CC(=O)N2Cc2ccc(F)cc2)cc1 (configuration not stated),-17%,i

# Bioassay records: PubChem BioAssay, National Center for Advancing Translational Sciences (NCATS)
